High-throughput results from PubChem.
miR-21 FLuc: raises the signal of a miR-21 reporter; HeLa miR-21 FLuc reporter, luciferase, 48 h; Potency, µM (series often up to 38.3 µM), inactives show top-dose reporter change, positive = more light; AID 2288; 340,000 tested, under 10 active; active = well fitted rising curve with a large enough effect; inconclusive = small, poorly fitted or top-dose-only effect; inactive = no such curve, though single readings can be large or run the other way;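 note: % of control where 0% means no effect; miR-21 action dims this reporter so a rising signal means less miR-21 action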
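HeLa cells endogenously expressing miR-21, stably carrying CMV-driven firefly luciferase with a downstream miR-21 binding site, 2000 cells/well. Titrations up to approximately 40 uM, 48 hours; luciferase luminescence read.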
Rango complex inh: inhibitors of Rango-importin beta complex formation; Rango CFP/YFP FRET sensor + importin beta, 45 min; 340,000 compounds, 0.031% hits; Q14974; Potency, µM (doses to about 92.2 µM), inactives show at the highest dose inhibition of complex formation; active = rising FRET ratio curve, often small or poorly fitted; inconclusive = mostly compound fluorescence or quenching in the first reads; inactive = flat curves in all reads;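 note: potency is the fitted concentration of half-maximal effect; 0% = DMSO wells and 100% = buffer wells lacking importin beta; nearly all actives have a fitted effect of over 15% in size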
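FRET biosensor Rango (snurportin 1 IBB between N-terminal EYFP and C-terminal Cerulean), 50 nM in PBS/1 mM DTT/0.02% Tween-20/0.1% BSA, preincubated 5 min RT with compound; 0.125 microM importin beta added, 45 min RT, CFP/YFP FRET ratio read.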
GLA inh pH 4.5: blocks human alpha-galactosidase A at pH 4.5; P06280; purified enzyme, 4-MU-alpha-Gal fluorescence, pH 4.5; activity change, negative = inhibition, % at 105 µM; 230,000 tested, under 10 active; AID 1467; inconclusive = small, poorly fitted or top-dose-only inhibition, or a rising curve; inactive = flat fitted curve, though single readings scatter; no compound was filed as active;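 note: 0% = full activity with enzyme and -100% = basal without enzyme; dose as in the result columns while the protocol names 77 µM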
Target sequence (P06280 whole entry, looked up): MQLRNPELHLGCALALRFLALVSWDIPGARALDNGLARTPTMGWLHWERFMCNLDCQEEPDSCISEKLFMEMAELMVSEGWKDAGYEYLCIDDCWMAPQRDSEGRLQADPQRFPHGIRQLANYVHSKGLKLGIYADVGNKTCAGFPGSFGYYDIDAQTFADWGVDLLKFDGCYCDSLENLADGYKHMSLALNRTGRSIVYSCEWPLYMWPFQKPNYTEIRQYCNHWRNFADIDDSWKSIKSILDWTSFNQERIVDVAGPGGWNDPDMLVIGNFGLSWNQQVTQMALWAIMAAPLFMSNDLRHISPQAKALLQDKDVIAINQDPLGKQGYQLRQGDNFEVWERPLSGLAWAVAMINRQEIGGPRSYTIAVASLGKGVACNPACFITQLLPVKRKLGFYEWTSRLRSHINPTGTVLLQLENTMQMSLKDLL
Rango release inh: prevents RanGTP from dissociating the Rango-importin beta complex | Biochemical FRET Rango-importin beta, RanGTP-induced dissociation | Potency, µM (titrated, usually from 46.1 µM), inactives show at the top dose activity change, negative = inhibition | 340,000 compounds, 0.071% hits | AID 540253 | O95149+P62826; active means falling FRET ratio curve, often poorly fitted, with flat reads before Ran was added; inconclusive means other falling curves, or compound fluorescence or quenching; inactive means flat or rising ratio curve;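 note: potency is the fitted concentration of half-maximal effect; % of control where 0% means no effect; nearly all actives have a fitted effect of over 45% in size; -100% = wells without RanGTP and RCC1; the record marks most hits as doubtful in a second field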
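Compounds preincubate 5 min with complex of recombinant Rango and importin beta in PBS with 1 mM DTT. Ran (0.6 uM) loaded with 2 mM GTP plus 0.2 uM RCC1 starts dissociation; FRET is recorded 45 min later.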
Starred values were filed as active, the others as inactive; ? = inconclusive; / = no result given; & = joins results of further samples. An excerpt; count on the stated rates, not on these rows.

Below each compound: GLA inh pH 4.5, Rango complex inh, miR-21 FLuc, Rango release inh
CCN(CC)CCN(C(=O)/C=C/c1cccs1)c1nc2ccc(C)cc2s1
 : /, -0.4%, -7%, 11%
CCOC(=O)c1nnn(-c2ccc(OC)cc2)c1N
 : 4, 2.0%, -26%, -4%
NCc1ccccc1
 : /, 3.6%, /, 15%
CN(C)c1ccc(/C=N/NC(=O)c2ccc(Cn3cc(Br)cn3)o2)cc1
 : -8, ?, -32%, ?
COc1cccc(C(=O)NNC(=O)c2cccc3ccccc23)c1
 : /, 6.3%, /, 11%
Cc1ccc(S(=O)(=O)NCc2nc(-c3ccccc3)no2)cc1
 : /, -0.3%, 0%, -12%
CC(=NNC(=S)Nc1cccc(C)c1)c1ccccn1
 : /, ?, /, 12%
CC(Cc1ccccc1)NC(=O)CSc1nc2nc3c(cc2c(=O)n1-c1ccccc1)COC(C)(C)C3 (stereo not drawn)
 : 1, 1.9%, 0%, -10%
COC(=O)c1cn(NC(=O)c2ccc(F)cc2)c(=O)c2ccccc12
 : 5, 1.3%, -2%, -6%
CC1(C)CC(=O)C=C(NC2=CC3OC(c4ccccc4)OCC3OC2=O)C1 (stereo not drawn)
 : 3, 0.3%, 27%, 6%
Cc1c(C(=O)N2CCOCC2)c(S(=O)(=O)Nc2ccc(Br)cc2F)c(C)n1C
 : /, 4.0%, -1%, 20%
Cc1cccc(C(=O)N2CCC(=O)N(C(COCc3ccccc3)Cc3ccccc3)CC2)c1 (stereo not drawn)
 : 3, 2.8%, -8%, 1%
COc1ccc(/C=C/c2nnc(NC(=O)COc3ccc(C)cc3)s2)cc1
 : 19, -3.9%, -11%, -17%
Cc1cccn2c(=O)nc(SCC(=O)N3CCOCC3)nc12
 : /, 2.7%, /, 16%
COc1ccc(CNC(=O)c2cc(=O)c3c(C)cc(C)cc3o2)cc1
 : /, ?, 3%, 1%
CCc1ccc(N(CC(=O)NCc2ccco2)C(=O)CCC(=O)Nc2ccccn2)cc1
 : /, 4.1%, -2%, 2%
CC(C)(C)c1cc(C(F)(F)F)nc(SCCCNC(=O)c2ccco2)n1
 : -1, -0.2%, 9%, -6%
COc1ccc(NC2CCCN(C(=O)c3cccs3)C2)cc1 (stereo not drawn)
 : /, 0.1%, -12%, -11%
Cc1ccc(CNC(=O)C2CCN(S(=O)(=O)c3ccc4c(c3)OCCCO4)CC2)cc1
 : -6, 4.2%, 0%, 0%
COC(=O)c1ccc(CN(c2ccccc2OC)S(=O)(=O)c2cccs2)o1
 : 3, 5.5%, 3%, -6%
COc1ccc(-c2csc(N3C(=O)C4C5c6ccccc6C(c6ccccc65)C4C3=O)n2)cc1 (stereo not drawn)
 : -19, ?, 2%, 39%
O=C(NCCCN1CCN(Cc2ccccc2)CC1)C1CCN(c2nnc(-n3cccc3)s2)CC1
 : 6, -1.0%, 2%, -5%
CCOc1ccc(C2C3=C(CCCC3=O)Nc3ccc4ncccc4c32)cc1 (stereo not drawn)
 : -1, ?, 1%, ?
COc1cccc2c(=O)n(CC(=O)NC3CCCCC3)ccc12
 : 6, 7.7%, -12%, 14%
CCS(=O)(=O)n1c(Cc2cccs2)nc2ccccc21
 : /, -3.8%, /, 22%
CCNc1nc(NC(C)(C)C)nc(N(CC)n2cnnc2)n1
 : 3, 2.0%, 0%, 9%
CNC[C@H]1Oc2c(NS(=O)(=O)c3ccc(OC)cc3)cccc2C(=O)N([C@H](C)CO)C[C@@H]1C
 : /, 0.4%, /, 3%
CCCSc1nnc(NC(=O)c2sc3nc(-c4cccs4)ccc3c2N)s1
 : -12, ?, -21%, ?
COc1ccc(CCN(C)C2CCCN(S(C)(=O)=O)C2)cc1OC (stereo not drawn)
 : /, 0.1%, -2%, 5%
CCCCNc1nc2cccnc2s1
 : 2, 4.2%, -35%, 15%
Cc1cc(NC(=O)/C=C/c2ccc(Cl)cc2)no1
 : -2, -5.1%, -33%, -15%
CSc1ccc(S(=O)(=O)NCC(=O)OCC(=O)NCC2CCCO2)cc1[N+](=O)[O-] (stereo not drawn)
 : /, -1.8%, /, 16%
COc1cc(-c2nc(CN3CCCCC3CCNC(C)=O)c(C)o2)ccc1F (stereo not drawn)
 : -17, -2.0%, -4%, 5%
Cc1ccc(S(=O)(=O)N(C)c2ccc(C(=O)Nc3ccccc3C(=O)N3CCOCC3)cc2)cc1
 : /, 0.9%, 3%, -9%
Cc1cc2c(cc1S(=O)(=O)N1CCN(c3cccc(C)c3C)CC1)OCCN2C
 : /, 0.9%, -8%, 17%
CCc1cccc2c(C(=O)CSc3nncn3C)c[nH]c12
 : 4, 3.2%, -32%, 34%
O=C(CN1C(=O)NC2(CCCCCCC2)C1=O)NCc1ccccc1Cl
 : /, ?, /, 12%
CCN1C(=O)/C(=C\N2CCN(C(=O)c3ccco3)CC2)SC1=S
 : -15, -2.3%, 0%, -1%
O=C(Nc1ccc(Cl)c(S(=O)(=O)N2CCCC2)c1)c1nn(CCO)c(=O)c2ccccc12
 : /, ?, /, 10%
C=C(C)Cn1c(CCn2c3ccccc3c3ccccc32)n[nH]c1=S
 : -13, 9.6%, -2%, -5%
O=[N+]([O-])c1cccc(CN2CCN(Cc3ccco3)CC2)c1
 : /, 3.9%, -3%, -11%
Oc1c(C(Nc2ccccn2)c2ccccn2)ccc2cccnc12 (stereo not drawn)
 : 3, -1.9%, 10%, -20%
COC(=O)C1=C(C)NC(C)=C(C(=O)OC)C1C(=O)OCC(=O)N1CCCCC1C (stereo not drawn)
 : /, 2.0%, /, 16%
CCN(CC)NC(=O)Nc1ccccc1
 : 1, 5.2%, -5%, -5%
Cc1ccc(S(=O)(=O)N2CCN(c3ccc(N4CCOCC4)nn3)CC2)cc1[N+](=O)[O-]
 : /, -1.3%, /, -20%
CC12CCC(=O)N1C(C(=O)NCc1ccccc1Cl)CS2 (stereo not drawn)
 : /, -1.5%, /, -12%
O=C(CSc1nnc(-c2ccccc2)n1-c1ccccc1)N1c2ccccc2Sc2ccccc21
 : 3, 9.0%, 0%, -11%
CC(C)NS(=O)(=O)c1ccc2c3c(cccc13)CC2
 : -21, 0.3%, -6%, 14%
NNC(=O)CNS(=O)(=O)c1ccc([N+](=O)[O-])cc1
 : -11, 0.0%, -1%, 5%
COC(c1ccccc1)c1nnc(CCC(=O)NCc2cccc(-n3cccn3)c2)o1 (stereo not drawn)
 : -4, 1.1%, -5%, -7%
COc1cccc(NC(=O)CSc2nnnn2C2CCCC2)c1
 : /, -6.0%, 1%, 0%
C=C1N(c2cccc(Cl)c2)C(=O)OC1(C)C
 : 6, -1.3%, 1%, 9%
Cc1cc(N2CCC(N(C)C3CCCC3)CC2)nc2cc(O)ccc12
 : 26, ?, -3%, ?
COc1ccc2nc(C)cc(SCC(=O)OC(C)C)c2c1
 : 2, -0.1%, -5%, -2%
CCN(CC)C(=O)C1CCCN(c2ncnc3c2cnn3-c2ccc(Cl)cc2)C1 (stereo not drawn)
 : /, ?, 25%, 0%
O=C(Nc1ccc2c(c1)nc1n2CCSC1)c1ccco1
 : -1, ?, 9%, ?
Cc1sc2ncnc(SCC(=O)NCC3CCCO3)c2c1C (stereo not drawn)
 : /, 2.3%, /, 2%
c1cncc(-c2nn3c(Cn4cnc5ccccc54)nnc3s2)c1
 : -4, 0.7%, -8%, -6%
COc1nc(Nc2ccc(O)cc2)nc(OC(C(F)(F)F)C(F)(F)F)n1
 : -6, 3.8%, 10%, 0%
Cc1cccc(OCCCC(=O)NCc2ccco2)c1
 : 6, 2.8%, -5%, 2%

An excerpt from above, limited to Rango release inh and GLA inh pH 4.5:
smiles | Rango release inh | GLA inh pH 4.5
COc1cccc(C(=O)NNC(=O)c2cccc3ccccc23)c1 | 11% | /
c1cncc(-c2nn3c(Cn4cnc5ccccc54)nnc3s2)c1 | -6% | -4

Carrying on:
Below each compound: GLA inh pH 4.5, Rango complex inh, miR-21 FLuc, Rango release inh
O=C(CCC(=O)N1CCCCCC1)NCc1ccc(F)cc1
 : /, 2.2%, -3%, -4%
CCC1CCCCN1C(=O)CSc1nnc(-c2cccs2)o1 (stereo not drawn)
 : -2, -2.2%, -29%, 2%
O=C(NCCc1ccc(Cl)cc1)C1CCN(S(=O)(=O)c2cccs2)CC1
 : 5, -2.7%, 13%, 2%
Cc1[nH]c2ccccc2c1C(=O)CSc1ccccn1
 : 3, 4.2%, -31%, -16%
O=C(COC(=O)Cc1ccccc1F)Nc1cccc(S(=O)(=O)NC2=NCCCCC2)c1
 : 3, -2.3%, 1%, 12%
COc1ccc(S(=O)(=O)Nc2ccc3c(c2)C(=O)N([C@H](C)CO)C[C@H](C)[C@@H](CN(C)C(=O)Nc2ccc4c(c2)OCO4)O3)cc1
 : /, -3.2%, /, ?
Cc1cc(C)c2[nH]c(=O)c(CN(Cc3cccs3)C(=S)NCC3CCCO3)cc2c1 (stereo not drawn)
 : -4, 5.4%, 1%, -14%
Cc1cc(S(=O)(=O)NC(C)C)ccc1OCC(=O)Nc1ccc2c(c1)OCCO2
 : -1, 2.7%, 1%, 0%
Cc1ncc([N+](=O)[O-])n1S(=O)(=O)c1cc(Cl)ccc1Cl
 : /, ?, -2%, -9%
CCOc1ccc(CCNC(=O)c2cccnc2N2CCCC2)cc1OCC
 : -7, 3.1%, -6%, 2%
O=S(=O)(Nc1ccc(N2CCCCC2)cc1)c1ccccc1
 : -7, ?, -37%, -5%
COc1cccc(NC(=O)c2cccc(C(=O)Nc3cccc(OC)c3)c2)c1
 : /, ?, -17%, -5%
Cc1ccc(NC(=O)C(c2ccccc2)N2CCN(CC(=O)N3CCOCC3)CC2)cc1 (stereo not drawn)
 : /, -1.0%, /, -10%
O=C(Nc1ccc(Br)cc1)c1cc(-c2cccs2)on1
 : /, -3.7%, -5%, 0%
Cn1c2ccccc2n2c(=O)c(=O)n(CC(=O)N3CCCc4ccccc43)nc12
 : 8, /, -2%, /
O=C(CSc1nnc(-c2cccnc2)n1Cc1ccco1)N1CCc2ccccc21
 : -2, -4.1%, -3%, -9%
O=C(COC(=O)c1c[nH]c(=O)[nH]c1=O)NCc1ccccc1
 : 4, -0.8%, -4%, -3%
CC1(C)NC(=O)N(c2ccc([N+](=O)[O-])c(C(F)(F)F)c2)C1=O
 : 2&-2&-2&-5, 0.0%, /, 2%
Cc1ccc(OCC(=O)NCCCNC(=O)c2cnccn2)cc1C
 : /, 4.8%, 0%, -1%
Cc1ccc(S(=O)(=O)C2(C(=O)NC3CCCCC3)CC2)cc1
 : /, -1.2%, -3%, 8%
CCN(c1ccc(OCC(=O)OCC(=O)c2c(N)n(C)c(=O)n(C)c2=O)cc1)S(=O)(=O)c1ccccc1
 : -10, -3.6%, 1%, -8%
CCc1ccc(NC(=O)Cn2nnc(C(=O)NCc3ccco3)c2N)cc1
 : /, 3.4%, -1%&1%, -11%
CCCc1cc(-c2n[nH]c(C(=O)OCC)c2-c2cscn2)c(O)cc1O
 : -2, 1.1%, 18%, 0%
COc1cc(/C=C/C(=O)OCC(=O)Nc2ccc(S(N)(=O)=O)cc2)ccc1O
 : -27, ?, -7%, ?
COc1cc(/C=N/NC(=O)Cn2cnc3c2c(=O)n(C)c(=O)n3C)ccc1O
 : -14, 1.3%, 0%, 21%
CCOC(=O)N1CCN(C(=O)c2ccc(CS(=O)(=O)c3ccccc3OC)o2)CC1
 : 8, -6.1%, 4%, 13%
Cc1cc(C(=O)CSc2nnc(N)s2)c(C)n1CCc1ccc(F)cc1
 : -7, -1.0%, -5%, -5%
CN(c1ccc(C(=O)NCc2cccnc2)cc1)S(=O)(=O)c1ccc(Cl)cc1
 : /, 0.6%, 13%, 16%
C=CCn1c(SCCC(=O)O)nnc1-c1cccs1
 : 1, -4.2%, -1%, -7%
